Bioassay records deposited in PubChem BioAssay by National Center for Advancing Translational Sciences (NCATS).
Rango-impB inh = prevents formation of the Rango-importin beta complex; Rango CFP/YFP FRET sensor + importin beta, 45 min; Potency, µM (titrated, usually from 92.2 µM), for the others: at the highest dose inhibition of complex formation; 340,000 tested, 0.031% active; active = rising FRET ratio curve, often small or poorly fitted; inconclusive = mostly compound fluorescence or quenching in the first reads; inactive = flat curves in all reads;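 further: potency means the concentration at half of the fitted maximal effect; 0% = DMSO wells and 100% = buffer wells lacking importin beta; nearly all actives have a fitted effect of over 15% in size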
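FRET biosensor (snurportin 1 IBB flanked by EYFP and cerulean), 50 nM, with compound 5 min, then 0.125 microM importin beta in PBS, 1 mM DTT, 0.02% Tween-20, 0.1% BSA. CFP/YFP ratio read after 45 min at room temperature; pre-read flags interference.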
miR-21 FLuc = raises the signal of a miR-21 reporter | HeLa miR-21 FLuc reporter, luciferase, 48 h | Potency, µM (top dose mostly 38.3 µM), for inactives: top-dose reporter change, positive = more light | 340,000 tested, under 10 active | AID 2288; active = well fitted rising curve with a large enough effect; inconclusive = small, poorly fitted or top-dose-only effect; inactive = no such curve, though single readings can be large or run the other way;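 further: % of control where 0% means no effect; miR-21 action dims this reporter so a rising signal means less miR-21 action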
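Using DMEM plus 10% FBS, HeLa miR-21-FLuc cells are incubated with test compounds (final up to about 40uM) for 48 hours; firefly luciferase signal is then imaged following reagent-mediated lysis.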
Rango release inh = prevents RanGTP from dissociating the Rango-importin beta complex; Potency, µM (doses to about 46.1 µM), without a hit: top-dose activity change, negative = inhibition; 340,000 tested, 0.071% active; O95149+P62826; Biochemical FRET Rango-importin beta, RanGTP-induced dissociation; active means falling FRET ratio curve, often poorly fitted, with flat reads before Ran was added; inconclusive means other falling curves, or compound fluorescence or quenching; inactive means flat or rising ratio curve;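 further: potency means the concentration at half of the fitted maximal effect; % of control where 0% means no effect; nearly all actives have a fitted effect of over 45% in size; -100% = wells without RanGTP and RCC1; the record marks most hits as doubtful in a second field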
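Two FRET readings bracket the reaction: one 5 min after compound meets Rango–importin beta, another 45 min after RanGTP-RCC1 (0.6 uM Ran, 0.2 uM RCC1, 2 mM GTP) is added. Only the second defines inhibition.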
GLA inh pH 4.5 = inhibitors of human alpha-galactosidase A at pH 4.5; P06280; purified enzyme, 4-MU-alpha-Gal fluorescence, pH 4.5; activity change, negative = inhibition, % at 105 µM; 230,000 tested, under 10 active; AID 1467; inconclusive = small, poorly fitted or top-dose-only inhibition, or a rising curve; inactive = flat fitted curve, though single readings scatter; no compound was filed as active;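 further: 0% = full activity with enzyme and -100% = basal without enzyme; dose as in the result columns while the protocol names 77 µM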
Target sequence (P06280 whole entry, looked up): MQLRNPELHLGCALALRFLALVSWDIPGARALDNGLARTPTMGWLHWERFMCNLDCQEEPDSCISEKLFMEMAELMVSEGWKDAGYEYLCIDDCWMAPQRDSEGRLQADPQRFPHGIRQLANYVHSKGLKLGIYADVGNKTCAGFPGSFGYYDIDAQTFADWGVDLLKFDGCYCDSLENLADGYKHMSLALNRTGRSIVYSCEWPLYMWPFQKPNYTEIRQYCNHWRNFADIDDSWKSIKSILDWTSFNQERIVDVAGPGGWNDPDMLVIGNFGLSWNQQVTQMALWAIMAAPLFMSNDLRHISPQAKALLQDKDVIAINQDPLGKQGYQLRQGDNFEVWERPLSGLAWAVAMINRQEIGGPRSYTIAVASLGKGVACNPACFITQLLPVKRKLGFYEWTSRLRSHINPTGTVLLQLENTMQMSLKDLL
* marks the source's active call; other numbers are inactive results; ? = inconclusive; . = no result given; & = joins results of further samples. The list is partial (hit frequency here may not be typical).

Values run as follows: Rango-impB inh | miR-21 FLuc | Rango release inh | GLA inh pH 4.5
- Cc1sc(NC(=O)CSc2nnc3scc(-c4ccccc4)n23)c(C#N)c1C
    0.4% | -13.0% | -2.7% | -4.1
- COC(=O)c1ccc(C(=O)N2CCCC(Nc3ccc(C(C)C)cc3)C2)nc1 (stereo unspecified)
    -0.6% | 2.8% | -2.8% | .
- CCc1ccc(S(=O)(=O)/N=C2\C=C(Nc3ccc(C(=O)O)cc3)C(=O)c3ccccc32)cc1
    2.2% | ? | -3.7% | .
- Cc1cc(-n2c(C)cc(C(=O)CN3C(=O)NC4(CCCCCC4)C3=O)c2C)no1
    -0.4% | -8.8% | 7.8% | -5.4
- O=C(Nc1cccc2ccccc12)/C(=C/c1ccc([N+](=O)[O-])cc1)NC(=O)c1ccccc1
    ? | -0.6% | -24.6% | 2.2
- COc1ccc(N(C)S(=O)(=O)c2cccc(C(=O)OCC(=O)N3CC(C)CC(C)C3)c2)cc1 (stereo unspecified)
    2.0% | . | 14.5% | .
- O=c1oc(Cl)c(Cl)c2ccccc12
    0.2% | . | 3.2% | -8.6
- CCOC(=O)C1(CCOC)CCN(Cc2nc(C(C)C)cs2)CC1
    -1.0% | -15.5% | -2.4% | -2.9
- CC(C)(C)OC(=O)NCC1CCC(C(=O)NC[C@H](CC(=O)O)c2ccc(Cl)cc2)CC1 (stereo partly specified)
    7.5% | -1.0% | -17.4% | .
- COc1ccc(-n2c(=O)[nH]cc(C(=O)N3CCCc4ccccc43)c2=O)cc1
    1.2% | -5.9% | -8.0% | -5.6
- Cc1sc2nc(C)n(/N=C/N(C)C)c(=O)c2c1C
    -0.5% | -4.2% | -3.9% | -5.2
- Cc1c(C)n(Cc2ccccc2)c2ccc(C(=O)NCCN3CCOCC3)cc12
    0.1% | -13.8% | 6.6% | .
- CSCC[C@H](NC(=O)N1CCn2c1nc1ccccc12)C(=O)NCc1ccco1
    ? | 0.2% | -2.8% | .
- Cc1ccccc1C(=O)NNC(=O)c1ccoc1C
    ? | -10.6% | 11.0% | -1.1
- COc1ccccc1/C=C(/CC(=O)NCc1ccccc1)c1nc2ccccc2s1
    -0.6% | -0.8% | -7.0% | -8.4
- O=C(Oc1cccc([N+](=O)[O-])c1)N1CCCCC1
    -0.6% | -2.5% | 6.6% | 1.7
- COc1ccc(CNC(=O)C(C)OC(=O)CCN2C(=O)C3CC=CCC3C2=O)cc1 (stereo unspecified)
    -2.7% | . | -0.1% | .
- COc1ccccc1CN1CCNC(=O)C1CC(=O)NCC1CCOCC1 (stereo unspecified)
    -1.5% | -1.8% | 1.5% | .
- N#CCc1ccc(OC(=O)c2cccnc2Cl)cc1
    ? | . | ? | .
- C=CCn1c(SCC(=O)NCc2ccco2)nnc1C1CCCCC1
    0.5% | . | -2.6% | .
- O=C(CN1CCSCC1)N/N=C/c1ccc(Cl)cc1
    . | -22.8% | . | 2.7
- Clc1ccc(N2CCOCC2)nn1
    -4.4% | 0.7% | 8.4% | 0.7
- Cc1cc(C)c2cc(CN(CCN(C)C)C(=O)Nc3ccccc3Cl)c(=O)[nH]c2c1
    -0.3% | -8.8% | -6.5% | 1.1
- Cc1cc(-n2c(C)c3c(C)nnc(C)c3c2C)ccc1N
    -1.1% | -1.0% | 11.1% | ?
- Cc1cccn2c(=O)c3cc(C(=O)NCCc4ccccc4)c(=N)n(CC4CCCO4)c3nc12 (stereo unspecified)
    ? | 4.2% | ? | .
- CC(C)(C)N(Cc1cc2ccccc2[nH]c1=O)C(=O)c1cccc([N+](=O)[O-])c1
    1.0% | -1.6% | -1.5% | 0.9
- COCCn1c(-c2ccc(C)cc2)nc2oc3cc(OC)ccc3c(=O)c2c1=O
    3.8% | -0.8% | 69.1% | -4.7
- O=[N+]([O-])c1cccc(-c2nnc(CNC3CC3)o2)c1
    -0.9% | -0.3% | 10.8% | -2.5
- O=C(N=C1SC2CS(=O)(=O)CC2N1c1ccc(Br)cc1F)C1CC1 (stereo unspecified)
    -1.2% | -2.2% | 2.0% | .
- O=C(O)c1nn(CCOc2c(Cl)cccc2Cl)c(=O)c2ccccc12
    -7.1% | 20.9% | 13.2% | .
- CNC(=O)COC(=O)c1ccccc1NC(=O)c1ccco1
    0.7% | 5.7% | -1.1% | -2.3
- Cc1cc(N2CCC(C(=O)NCC3CC3)CC2)nc(-c2ccccc2)n1
    -1.8% | -1.1% | 2.1% | 4.5
- CC(C)[C@H](NC(=O)C1(c2ccccc2)CCN(C(=O)OC(C)(C)C)CC1)C(=O)O
    2.3% | -7.5% | 16.6% | 7.7
- C=CCN(CC=C)Cc1nc(N)nc(Nc2ccccc2C)n1
    1.6% | -9.4% | 8.0% | -7.2
- O=C(CCC1CCCN(C(=O)c2ccsc2)C1)NCc1ccc(F)c(F)c1 (stereo unspecified)
    -4.8% | -16.7% | ? | .
- O=C(NCCCN1CCOCC1)C(=O)N/N=C/c1ccccc1Cl
    -2.3% | 0.5% | -1.6% | -6.9
- CC1CCC(NC(=O)c2cccc(S(=O)(=O)NCc3ccccc3)c2)CC1 (stereo unspecified)
    -0.9% | . | 11.6% | .
- Fc1ccc(C2CC(c3ccc(F)cc3)n3ncnc3N2)cc1 (stereo unspecified)
    -0.5% | -3.0% | -4.8% | -13.5
- CCCN1C(=O)/C(=c2\s/c(=C3\C=Cc4ccccc4N3CC)c(=O)n2-c2ccccc2)SC1=S
    . | -7.8% | . | 5.1
- N#CCCCN1C(=O)C(=C(C#N)C#N)c2ccccc21
    ? | 4.6% | -8.2% | 2.5
- Nc1ccc(N=Nc2ccccc2Cl)c(N)n1
    2.3% | -64.1% | 3.1% | 5.8
- Cc1noc(C)c1COC(=O)CCc1ccc(S(=O)(=O)N2CCCCC2)cc1
    -0.6% | -1.0% | 25.6% | -8.3
- Cc1ccccc1N1CC(C(=O)Nc2ccncc2)CC1=O (stereo unspecified)
    -1.1% | . | 8.8% | .
- CC(C)(C)NC(=O)C(=O)NN=C1CCCCCCCCCCC1
    -3.8% | -4.0% | -2.2% | -1.5
- O=C(c1cc(S(=O)(=O)N2CCOCC2)ccc1F)N1CCc2ccccc21
    -3.5% | . | 12.4% | .
- COC(=O)N(C)c1ccccc1C(=O)N1CCOCC1
    -3.6% | 0.5% | 7.4% | -3.3
- Cc1cc(=O)[nH]c(NN=C(CC(C)C)CC(C)C)n1
    -2.3% | -6.8% | 10.9% | -2.3
- COc1ccc(/C=C(\NC(=O)c2ccccc2)C(=O)N/N=C/c2sccc2C)cc1
    ? | -7.4% | 34.6% | -26.5
- O=C(NCCO)Nc1ccc2nsnc2c1
    ? | -2.9% | -15.2% | -7.6
- CCOC(=O)c1sc2ccccc2c1OC(=O)c1ccccc1OC
    6.6% | ? | -4.4% | 3.7
- Cc1cccc(Cn2cnc3c(nnn3Cc3ccc(Cl)cc3)c2=O)c1
    0.3% | 0.6% | 1.8% | 3.6
- CSCCC1NC(=O)N(CC(=O)Nc2c(C(C)C)cccc2C(C)C)C1=O (stereo unspecified)
    5.1% | -0.6% | -4.4% | 8.2
- CCOC(=O)CCP(=O)(O)C(O)c1ccc(OC)cc1 (stereo unspecified)
    -3.2% | -1.0% | 4.5% | 0.7
- CNC(=O)c1c(NC(=O)C2=COCCO2)sc2c1CCCC2
    -1.9% | -39.2% | -2.5% | .
- COc1ccc(C(=O)OCC(=O)NCC2CCCO2)cc1S(=O)(=O)N1CCCc2ccccc21 (stereo unspecified)
    ? | -14.1% | -7.0% | 2.0
- COc1ccc(S(=O)(=O)N2CCC(C(=O)NCc3cccc(OC)c3)CC2)cc1
    -0.4% | -5.9% | -3.8% | 2.7
- CCOn1c(=O)c(-c2ccc(Cl)cc2)[n+]([O-])c2ccccc21
    0.3% | 0.1% | 4.0% | -2.7
- CC(C)(C)NC(=O)/C(=C\C=C\c1ccccc1)NC(=O)c1ccc([N+](=O)[O-])cc1
    -0.3% | 1.0% | -5.2% | 0.2
- CCOc1ccccc1OCCCNCc1ccccc1
    -0.2% | 2.7% | -19.0% | .
- Nc1c(C(=O)CSc2nnc(N3CCOCC3)n2-c2cccc(F)c2)c(=O)[nH]c(=O)n1C1CC1
    3.2% | . | 2.1% | .

(continued)
Values run as follows: Rango-impB inh | miR-21 FLuc | Rango release inh | GLA inh pH 4.5
- Cn1ccc(C(=O)Nc2ccc(Br)cc2Br)n1
    1.9% | -70.3% | 0.6% | 2.9
- COC(=O)CCCC1=CC2=C(c3ccccc3)C(=O)C(C)(OC(=O)C3CCCC3)C(=O)C2=CN1CCc1ccccn1 (stereo unspecified)
    ? | -3.2% | -0.3% | -1.6&1.3
- CCOC(=O)c1c(NC(=O)C2=C(C)NC(=S)NC2c2ccccc2C(F)(F)F)sc(C)c1C (stereo unspecified)
    -4.6% | -3.5% | -1.9% | 5.9
- Cc1ccc(CN2CCC(CNS(=O)(=O)c3ccc(-c4ccc(=O)[nH]n4)s3)CC2)cc1
    -0.6% | -5.4% | 0.6% | .
- Cc1onc(-c2ccccc2)c1C(=O)N1CCN(C(=O)c2ccco2)CC1
    2.9% | -5.3% | 1.4% | 1.7
- COCc1nnc(NC(=O)c2ccc(S(=O)(=O)N(CC(C)C)CC(C)C)cc2)o1
    -4.5% | ? | 2.2% | 7.8
- CN(C)Cc1cc(C(C)(C)C)cc(N2CCOCC2)c1O
    2.4% | . | 2.8% | .
- Cc1ccc(C(=O)CCC(=O)OCC(=O)Nc2c(C)nn(-c3ccccc3)c2C)cc1
    1.1% | . | 1.3% | .
- COc1ccc(Cl)cc1N(CC(=O)N1CCN(Cc2ccccc2)CC1)S(C)(=O)=O
    0.0% | -10.7% | -11.1% | 4.0
- CC(C)(CNC(=O)C1CCCC1)CNC(=O)C1CCCC1
    0.1% | -7.1% | 2.4% | -0.1
- Cc1cc([N+](=O)[O-])nn1CC(=O)Nc1cccc2nonc12
    0.0% | 4.9% | 19.9% | 1.5
- CCN1C(=O)N[C@@H](c2ccc(Br)cc2)C(C(C)=O)=C1C
    3.3% | . | 19.2% | -5.3
- COc1ccc(-n2ncc3c2CC(C)(C)CC3NC(=O)CN2CCOC2=O)cc1 (stereo unspecified)
    0.3% | -3.7% | 0.0% | .
- O=C(CSc1ncn(-c2ccccc2)n1)Nc1nc2c(s1)CCCC2
    -3.4% | -9.6% | -18.2% | -15.2
- Cc1cc(C(=O)CCl)c(C)n1CC1COc2ccccc2O1 (stereo unspecified)
    6.2% | 23.0% | 21.0% | -1.4
- COCCNC(=O)c1ccc2c(Cl)c3c(nc2c1)CCC3
    -0.2% | -68.8% | 10.1% | .
- CN(C)c1ccc(/C=C/c2ccncc2)cc1
    ? | -50.3% | ? | -11.1
- C/C(=N\O)c1sc(-c2ccccc2)nc1C
    -0.2% | -78.4% | -6.7% | 4.5
- O=S(=O)(c1cccs1)N1CCN(CCc2ccccc2)CC1
    2.2% | 10.0% | 19.5% | .
- COc1ccc(N2C(=O)CC(Sc3nc4ccccc4s3)C2=O)cc1 (stereo unspecified)
    -1.4% | 0.4% | 9.0% | -3.1
- COC(=O)c1ccccc1NC(=O)CN(c1cc(OC)ccc1OC)S(C)(=O)=O
    0.1% | -6.5% | -1.9% | -2.8
- C#CCOCCOCCOCCNc1nc(N2CCN(C(=O)Cn3cc(CCO)nn3)CC2)nc(N2CCN(C(=O)Cn3cc(CCO)nn3)CC2)n1
    -0.6% | . | -0.2% | .
- Cc1cccc(CSCc2nnc(N)s2)c1
    0.7% | -21.6% | -8.6% | -4.1
- CCN(CC)S(=O)(=O)c1cc(C)c(C)cc1Br
    3.9% | -6.0% | 16.7% | -4.0
- COc1ccc(C(C)(C)NC(=O)C2CCC(=O)N(C3CCCC3)C2)cc1OC (stereo unspecified)
    -0.3% | -1.1% | -9.0% | .

Compounds listed so far with a cyano group (three):
Values run as follows: Rango-impB inh | miR-21 FLuc | Rango release inh | GLA inh pH 4.5
- Cc1sc(NC(=O)CSc2nnc3scc(-c4ccccc4)n23)c(C#N)c1C
    0.4% | -13.0% | -2.7% | -4.1
- N#CCc1ccc(OC(=O)c2cccnc2Cl)cc1
    ? | . | ? | .
- N#CCCCN1C(=O)C(=C(C#N)C#N)c2ccccc21
    ? | 4.6% | -8.2% | 2.5
